Screening results from PubChem BioAssay.
Env fusion inh = blocks HIV Env-driven cell-cell fusion | HeLa-JRFL Env/CEM21 cell fusion, luciferase | inhibition, % at 12.3 µM | hit rate 1.1% among 360,000 | AID 651610;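 active = mean replicate inhibition score of at least 50 and every replicate individually at or above 50; inconclusive = only one of the two criteria met; inactive = mean below 50 and not all replicates reaching 50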;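 also: 0% = plate neutral controls and 100% = maraviroc near 300 nM; one replicate is shown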
MT1-MMP act inh = inhibitors of human MT1-MMP activation | P50281 | HT1080 RFP-PRO-GFP cells, GFP/RFP ratio fluorescence, overnight; percent of plate control window, DMSO zero | GFP/RFP ratio change, % at 20 µM | hit rate 0.061% among 360,000;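 active = GFP/RFP ratio change of at least 30% with cell ATP level not reduced by more than half and red fluorescence within 50% of control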; also: strong numbers were not always called active
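Read-out: GFP/RFP fluorescence ratio; Test system: RFP-PRO-GFP reporter HT1080 cells; Compound dosing: single-point 20 µM compound, 1% DMSO; Times: overnight compound exposure at 37 °C.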
CSC inhib = blocks cancer stem cells. cancer stem cell-like cells viability, luminescence. inhibition, % at 7.5 µM. hit rate 1.1% among 300,000. AID 2717;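 active = mean at 75% or more and at least half the replicates too; inconclusive = mean and replicates disagree; tested in HMLE shEcad cells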;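 also: 0% = median of negative and 100% = median of positive control wells; the first replicate is given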
eIF4H FP inh = inhibitors of RNA binding by human eIF4H; Q15056; eIF4H fluorescence polarization binding assay; hit rate 0.94% among 290,000; inhibition, % at 35 µM; AID 2012;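 active = 50% or more with normal probe brightness, or confirmed in later tests; inconclusive = above 50% with abnormal brightness, or retests that disagree; inactive = below 50% or failed in later tests; about a fifth of its hits are not listed in these tables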;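 also: calls also rest on retests at 20 µM and on dose response follow-up; 0% = protein and probe with vehicle and 100% = probe without protein; strong numbers were not always called active; many hits fall short of the cut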
Yeast UUG start = alters start codon recognition fidelity in yeast; activity score, % at 18.7 µM; S. cerevisiae UUG-firefly luciferase reporter, luminescence/redox ratio; hit rate 0.13% among 350,000;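 active = replicate mean at a twofold rise or more, about +100% in these data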;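 also: firefly luciferase made from a UUG start codon reports start codon fidelity; reporter light over untreated wells divided by growth signal over untreated wells; some hits fall short of that in this replicate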
PABP polyA inh = blocks human PABP binding to poly(A) RNA; AID 2014; P11940; inhibition, % at 35 µM; hit rate 1% among 290,000; fluorescence polarization;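 active = 50% or more with normal probe brightness, or confirmed in later tests; inconclusive = above 50% with abnormal brightness, or retests that disagree; inactive = below 50% or failed in later tests; about a fifth of its hits are not listed in these tables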;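 also: calls also rest on retests at 20 µM and on dose response follow-up; controls were probe without protein and protein plus probe with vehicle; some compounds called inactive have numbers as strong as hits; many hits fall short of the cut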
Target sequence (P11940 whole entry, looked up): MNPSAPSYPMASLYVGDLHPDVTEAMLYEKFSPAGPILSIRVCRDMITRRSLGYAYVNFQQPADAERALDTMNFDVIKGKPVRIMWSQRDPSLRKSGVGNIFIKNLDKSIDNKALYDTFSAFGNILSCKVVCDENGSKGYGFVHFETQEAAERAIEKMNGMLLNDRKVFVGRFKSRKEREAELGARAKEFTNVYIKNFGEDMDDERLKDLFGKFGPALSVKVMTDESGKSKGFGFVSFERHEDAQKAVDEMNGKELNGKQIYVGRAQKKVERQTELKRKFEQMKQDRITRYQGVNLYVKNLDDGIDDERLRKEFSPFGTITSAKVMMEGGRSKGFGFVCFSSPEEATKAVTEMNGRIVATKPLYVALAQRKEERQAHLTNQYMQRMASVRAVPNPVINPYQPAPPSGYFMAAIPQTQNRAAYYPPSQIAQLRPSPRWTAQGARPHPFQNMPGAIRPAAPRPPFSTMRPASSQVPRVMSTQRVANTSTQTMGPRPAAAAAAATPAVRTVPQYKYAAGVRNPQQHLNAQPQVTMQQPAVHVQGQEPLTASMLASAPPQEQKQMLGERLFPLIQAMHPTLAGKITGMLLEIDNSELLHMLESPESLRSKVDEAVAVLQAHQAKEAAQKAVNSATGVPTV
Rce1 inh = inhibitors of yeast Ras-converting enzyme; hit rate 0.27% among 290,000; calls only; Q03530; yeast membranes, quenched prenylated peptide cleavage fluorescence;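 active = fall in fluorescence gain of 50% or more versus controls, with final raw signal at or below 3038400; inconclusive = same 50% fall but final raw signal above 3038400; inactive = fall in fluorescence gain under 50%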;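 also: plate controls were neutral control wells for no effect and wells lacking membranes for full effect; tested at 10 µM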
Target sequence (Q03530 whole entry, looked up): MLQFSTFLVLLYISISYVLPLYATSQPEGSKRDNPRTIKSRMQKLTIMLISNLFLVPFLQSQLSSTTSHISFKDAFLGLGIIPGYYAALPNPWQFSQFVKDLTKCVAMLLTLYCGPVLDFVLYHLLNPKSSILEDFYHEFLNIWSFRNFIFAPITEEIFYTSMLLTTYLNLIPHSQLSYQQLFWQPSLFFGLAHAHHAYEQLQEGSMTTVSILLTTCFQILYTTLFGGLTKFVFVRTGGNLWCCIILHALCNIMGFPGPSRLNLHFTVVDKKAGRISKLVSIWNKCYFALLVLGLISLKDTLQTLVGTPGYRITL
eIF4H FP inh retest = second read-out of eIF4H FP inh, no call of its own (marks repeat the call); inhibition, %; compound at 20 µM; confirmation average;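 mean of two retest wells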
PABP polyA inh retest = also measured in PABP polyA inh; calls as there; inhibition, %; compound at 20 µM; confirmation repeats;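 mean of two retest wells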
MT1-MMP act inh RFP = second read-out of MT1-MMP act inh, no call of its own (marks repeat the call); RFP signal change, %; measured here: RFP expression control read;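 0 = vehicle wells; hits needed this value within 50% of zero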
Active calls of the source: *; i = inactive; ? = inconclusive; nt = no result given.

SMILES	Env fusion inh	MT1-MMP act inh	MT1-MMP act inh RFP	CSC inhib	eIF4H FP inh	Yeast UUG start	PABP polyA inh	Rce1 inh	others
COc1ccccc1C(=O)NNC(=O)C1CCN(C(=O)OC(C)(C)C)CC1	-4	-1	1	3	-6	-11	-7	i
C=CC[C@@H](CC(=O)N(CCO)Cc1ccccc1)C(=O)N[C@H](COC(=O)[C@@H](CC=C)Cc1ccc(F)cc1)c1ccccc1	-15	-18	-20	-10	nt	6	nt	nt
CN(c1ccc(OC(=O)c2ccc(-n3cncn3)c([N+](=O)[O-])c2)cc1)S(=O)(=O)c1ccccc1	-1	-1	2	-8	nt	-23	nt	nt
COc1ccc(CC(=O)NCc2nnc(SCC(=O)Nc3ccccc3)n2C)cc1	8	2	7	-12	3	nt	20	i
CCOC(=O)C1(Cc2ccccc2)CCCN(C(=O)C=C(C)C)C1 (stereo not given)	-42	-3	-1	-5	-14	-14	0	i
CCC(=Nc1ccccc1)C1=C(O)CC(C)(C)CC1=O	nt	nt	nt	nt	8	nt	-14	i
N#CCCn1cc(/C=C/C(=O)O)c(-c2ccc(F)cc2)n1	5	-1	3	nt	7	nt	-4	i
COc1ccc(-c2n(CC(=O)OC3CC(C)CCC3C(C)C)c3ccccc3[n+]2C)cc1 (stereo not given)	-14	-44	-37	nt	-5	nt	-2	i
CCN1CCN(c2cc(=O)n(-c3cc(Cl)ccc3C)c(=O)[nH]2)CC1	-108	-4	3	nt	20	-14	13	i
CC(C)c1ccc(NS(=O)(=O)c2ccc(-n3cccn3)cc2)cc1	21	4	-2	3	88*	-8	74*	i
COC(=O)C1=C(C(=O)OC)[C@@H]2N(C)c3ccc(OC)cc3[C@@]23C[C@@H](C(=O)OC)N(S(=O)(=O)c2ccc(OC)cc2)C3=N1	8	0	-2	-4	-17	-16	6	i
O=C(C1CCCO1)N1CCN(S(=O)(=O)c2ccc(Cl)cc2)CC1 (stereo not given)	-6	0	2	7	-2	6	10	i
CCOc1nc(Nc2ccc(Cl)cc2)nc(OCC)n1	8	-12	-11	-3	1	6	-4	i
Cc1ccc(Cl)cc1N(CC(=O)N1CCOCC1)S(C)(=O)=O	-7	-4	5	-12	-3	-2	-4	i
CC(C)(CO)NS(=O)(=O)c1ccc2c(c1)C(=NO)c1cc(S(=O)(=O)NC(C)(C)CO)ccc1-2	3	-1	1	-7	-4	nt	8	i
CC(=O)c1c(C)[nH]c(C(=O)NCCC2=CCCCC2)c1C	-26	-5	-8	-8	2	-5	-2	i
CN1CCN(C(=O)C[C@@H]2CC[C@@H]3[C@H](COC[C@@H](O)CN3Cc3cccc(Cl)c3)O2)CC1	-5	0	2	nt	nt	13	nt	nt
COc1ccccc1C(=O)Nc1ccnn1C1CCN(Cc2cnn(C)c2)CC1	-5	-3	1	6	4	-12	8	i
COc1ccc(NC(=O)CCc2nnc3ccc(NCc4ccco4)nn23)cc1OC	4	8	7	1	-5	-12	14	i
O=C(NCc1ccc(C(F)(F)F)cc1)c1ccc2c(c1)S(=O)(=O)c1ccccc1C2=O	-54	3	1	0	nt	-12	nt	i
COc1ccc(N(C(C)C(=O)NN=C2CCCC2)S(C)(=O)=O)cc1 (stereo not given)	1	1	3	-6	2	nt	8	i
Cc1ccc(NC(=O)c2cn(-c3cccc(C)n3)cn2)cc1	nt	3	0	nt	-8	5	9	i
O=C(c1ccc2c(c1)N(Cc1ccc(F)cc1)C(=O)c1ccccc1S2(=O)=O)N1CCN(c2ccccn2)CC1	1	0	-1	-2	2	nt	-2	i
Cc1nc2[nH]c(=S)[nH]c(=O)c2nc1C	12	0	4	nt	nt	-2	nt	nt
O=C(COC(=O)c1cccc(Br)c1)NC(=O)NC1CCCC1	1	4	5	nt	nt	15	nt	nt
C=CCNc1ncnc2c1[nH]c1ccc(C)cc12	nt	16	-16	-16	0	nt	4	i
CCCCN(CC)c1nc(N)c(C#N)c(CC#N)c1C#N	-467	-27	2	-12	39	-12	41	i
COc1cc(CNCc2ccccc2C(F)(F)F)cc(OC)c1	6	2	3	-1	-2	nt	-21	i
COc1ccc(-n2c(COc3ccccc3)nnc2SCC(N)=O)cc1	-15	0	3	-6	2	3	7	i
Cn1c(SCC(=O)c2cc(Cl)c(Cl)s2)nnc1-c1ccco1	4	-3	4	9	?	-31	?	i
O=C(N/C(=C\c1cccc(Br)c1)C(=O)N1CCCCC1)c1ccco1	-2	0	-3	-5	-8	-7	6	nt
Cc1ccc(S(=O)(=O)Cn2nnnc2CN2CCCC3(CCCCC3)C2)cc1	nt	-11	-13	nt	-6	nt	1	i
Nc1c(C(=O)NCc2ccc3c(c2)OCO3)nnn1Cc1ccc(Br)cc1	-3	4	-1	-3	-5	-22	5	i
O=C(O)CC(CNC(=O)C1CCCN1C(=O)OCc1ccccc1)c1ccccc1 (stereo not given)	5	-2	3	3	-9	-12	0	i
CCOC(=O)CN1C(=O)N[C@@H](c2ccccc2)[C@@H](C(=O)OC)[C@H]1C	-84	2	5	4	nt	-12	nt	i
CCCCN(C(=O)c1cc(-c2ccco2)nc2ccccc12)c1c(N)n(CCC)c(=O)[nH]c1=O	-44	-2	4	-7	nt	-10	nt	nt
Cc1c(C(=O)NCc2cccs2)oc2ccc(S(=O)(=O)N3CCOCC3)cc12	11	4	-6	-8	11	-6	-1	i
CC1=NN(c2ccc(S(=O)(=O)O)cc2C)C(=O)C1	11	0	7	-11	11	nt	13	i
COc1ccc(-c2nn3c(=O)c(C)nnc3s2)cc1	nt	-5	4	-7	31	-16	27	i
CC(C)CN1CCC(=O)N(CCSc2ccccc2)CC1	20	6	0	29	7	-12	0	i
O=C(c1ccccc1)C1CCN(c2ncccc2[N+](=O)[O-])CC1	-2	1	0	-5	-1	nt	4	i
CC1(C)Cc2cccc(OCC(=O)Nc3cc(S(C)(=O)=O)ccc3Cl)c2O1	4	4	-5	10	nt	-10	nt	nt
CCOc1cc(C(=O)Nc2ccc(S(=O)(=O)NC3=NCCCCC3)cc2)cc(Br)c1OC	-3	7	-1	-6	nt	-4	nt	i
O=C(CCNC(=O)c1ccccc1Cl)NCC12CC3CC(CC(C3)C1)C2	nt	-6	-2	18	-8	nt	5	i
CN(C(=O)CSc1nnc2ccccn12)c1c(N)n(Cc2ccccc2)c(=O)[nH]c1=O	nt	1	13	-5	-11	-13	10	i
N#Cc1c(NC(=O)CSc2nc3c(c(C(F)(F)F)n2)CCc2ccccc2-3)sc2c1CCCC2	-12	-3	-13	6	-7	nt	0	nt
COc1ccc(CNC(=O)C2CCN(S(=O)(=O)c3cccc4cccnc34)CC2)cc1	-1	-3	3	-7	1	-8	10	i
C/C(=N\Nc1c(F)c(F)c(Br)c(F)c1F)c1ccncc1	-5	-4	2	26	-7	-18	-2	i
COc1ccc(C2C3=C(CC(C)(C)CC3=O)Oc3ncn4nc(-c5cccnc5)nc4c32)cc1 (stereo not given)	-2	4	-3	1	nt	0	nt	i
O=[N+]([O-])c1ccc(Cl)cc1N1CCCC1	7	1	3	-11	1	-9	-9	i
Cc1c(Cl)cnc(NC(=O)COC(=O)c2ccc3ncsc3c2)c1Cl	16	0	9	-8	30	-15	30	i
CCN(CC)c1ccc(C(=O)NNC(=O)CCNC(=O)c2ccccc2)cc1	nt	0	3	1	nt	-11	nt	nt
CCCc1ccc2c(N)c(C#N)sc2n1	nt	4	-1	-14	9	-9	5	i
O=[N+]([O-])c1ccc(Cl)c(/C=N/n2c(C3CCCCC3)n[nH]c2=S)c1	5	2	-2	?	-1	-14	-4	i
Cc1ccc(C(=O)N2CCN(S(=O)(=O)c3ccccc3)CC2)s1	-396	3	3	-17	nt	5	nt	i
COc1cccc(N(CC(=O)NCCSc2ccc(Cl)cc2)S(C)(=O)=O)c1	8	-1	-1	2	2	-6	-18	i
CCc1ccccc1NC(=O)CN(C)C(=O)c1cc(C2CC2)nc2c1cnn2C(C)C	nt	6	5	-12	nt	-10	nt	nt
COc1ccc(-c2noc(N3CCC(C(=O)NCCCN4CCCC(C)C4)CC3)n2)cc1 (stereo not given)	-26	2	3	-5	-1	3	-9	i
CS(=O)(=O)Nc1ccccc1C(=O)O	3	2	3	1	-11	-33	9	i
CCc1ccc(C2c3[nH]c4ccccc4c3CCN2C(=O)CNC(N)=O)cc1 (stereo not given)	5	1	-4	-18	-1	nt	-6	i

Next compounds
SMILES	Env fusion inh	MT1-MMP act inh	MT1-MMP act inh RFP	CSC inhib	eIF4H FP inh	Yeast UUG start	PABP polyA inh	Rce1 inh	others
CCN(CC)C(=O)Oc1ccc2ccccc2c1Cl	-6	1	-1	16	-7	2	5	i
COc1ccccc1OC(C)C(=O)Nc1ccc(S(=O)(=O)N2CCN(C)CC2)cc1 (stereo not given)	-4	-1	1	-12	0	-2	-10	i
CC1=C(C)CC(C(=O)NCC(=O)c2ccccc2)C(C(=O)O)C1 (stereo not given)	-91	-1	-3	-13	-7	-12	-2	i
O=C(NCc1ccccc1Cl)C(=O)NCC1OCCCN1S(=O)(=O)c1cccs1 (stereo not given)	-28	0	-1	-10	-10	-2	-2	i
C=CCn1c(O)c(N=NC(=S)Nc2ccccc2F)c2cc(S(=O)(=O)N3CCOCC3)ccc21	41	4	-12	-14	0	-16	1	i
CCN(C(=O)Cn1cc(C(F)(F)F)ccc1=O)c1c(N)n(Cc2ccccc2)c(=O)[nH]c1=O	-16	3	1	9	-6	-13	23	i
CCCCn1c(CN2CCN(C)CC2)nc2ccccc21	-15	2	3	4	3	-18	-8	i
O=C(COc1cccc2ccccc12)Nc1nc2ccccc2[nH]1	nt	14	5	19	3	-10	-4	nt
CCc1ccc(C(=O)COC(=O)C(CCSC)NC(=O)c2ccccc2)cc1 (stereo not given)	2	-3	0	-4	-4	nt	-15	i
COC(=O)c1ccc(NS(=O)(=O)c2cc(C)ccc2OC)cc1	nt	-4	-8	-15	-4	-12	4	i
COC(=O)c1cc(C)sc1NC(=O)CN1CCN(C(=O)c2ccco2)CC1	-9	0	3	1	-4	-13	10	i
CCCCc1ccc(-c2nc(-c3ccncc3)no2)cc1	nt	-3	-17	nt	-6	-32	-5	i
Clc1cccc(CNc2nc(-c3cccnc3)nc3ccccc23)c1	17	1	-4	nt	-26	-5	-13	i
COC(=O)C1=C(C)N(Cc2ccccc2)C(=NCc2cccc(C(F)(F)F)c2)N[C@H]1c1cccc(F)c1	-29	4	-10	111*	-19	-3	-28	i
Cn1ccnc1C(=O)c1ccc(Cl)c(S(=O)(=O)N2CCOCC2)c1	-2	0	1	nt	-6	-8	-10	i
O=C(Cc1cccc2ccccc12)Nc1cccnc1	-7	-2	1	-11	3	-8	7	i
O=C(COc1ccccc1[N+](=O)[O-])N1CCN(S(=O)(=O)c2ccccc2)CC1	-4	2	4	-12	-4	nt	70	i	eIF4H FP inh retest=-4;PABP polyA inh retest=4
Cn1c(N)c(C(=O)COC(=O)COc2ccc(C#N)cc2)c(=O)n(C)c1=O	9	6	5	-12	-10	-7	5	nt
COc1ccc(C(=O)Nc2nc(C)cs2)cc1S(=O)(=O)N1CCOCC1	-10	2	10	nt	nt	-3	nt	nt
CN(CC(=O)Nc1cccc(F)c1)C(=O)CCc1nc2ccccc2c(=O)[nH]1	-4	1	1	-10	nt	-12	nt	i

These rows are one share of the data, so the mix of outcomes need not match the whole.
